High-throughput results from PubChem.
VDR inh: inhibitors of human vitamin D receptor | P11473 | VDR-SRC2-3 peptide fluorescence polarization, 2 h | Potency, µM, for the others: max response, negative = inhibition, usual class: inhibitors | 400,000 tested, 0.93% active | AID 504847; active = well fitted inhibition curve with a large enough effect; inconclusive = small, poorly fitted or top-dose-only effect, or another doubt; inactive = no such curve, though single readings can be large or run the other way; note: series mostly up to about 120 µM
Target sequence (P11473 whole entry, looked up): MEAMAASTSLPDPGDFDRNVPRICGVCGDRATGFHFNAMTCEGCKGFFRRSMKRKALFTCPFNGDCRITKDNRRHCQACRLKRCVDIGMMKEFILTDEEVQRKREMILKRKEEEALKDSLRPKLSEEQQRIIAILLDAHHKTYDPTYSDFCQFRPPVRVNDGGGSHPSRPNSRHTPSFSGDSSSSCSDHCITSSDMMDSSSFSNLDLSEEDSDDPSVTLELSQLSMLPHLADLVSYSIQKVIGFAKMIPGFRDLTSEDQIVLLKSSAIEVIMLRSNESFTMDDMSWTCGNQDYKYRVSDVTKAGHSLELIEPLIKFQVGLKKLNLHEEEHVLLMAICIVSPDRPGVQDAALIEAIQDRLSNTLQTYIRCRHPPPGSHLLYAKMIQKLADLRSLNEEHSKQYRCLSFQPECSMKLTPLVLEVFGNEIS
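Measured by FP: displacement of SRC2-3 coactivator peptide from VDR by library compounds, following a two-hour ambient incubation.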
* hit, by the source's call; ? = inconclusive; & = joins results of further samples. % is set by controls: 0 for no effect and ±100 for the full control effect; potency is the fitted concentration of half-maximal effect.

SMILES	VDR inh
O=C(NCc1n[nH]c(=S)n1-c1cccc(Cl)c1)c1cccs1	-6%
C=CCNC(=S)N/N=C/c1cccc([N+](=O)[O-])c1	9%
Cn1cnnc1Sc1nc2ccccc2nc1NS(=O)(=O)c1ccccc1	-17%
Cc1[nH]c2ccccc2c1C(=O)COC(=O)C1CCC(=O)N1 (centres undefined)	-16%
Cc1cc(/C=N/NC(=O)c2cccc(F)c2)c(C)n1-c1ccccc1	-14%
CN(Cc1ccco1)c1ncnc2ccc(-c3cccnc3)cc12	?
NC(=O)CSc1nc2c(sc(=S)n2-c2ccccc2)c(=O)[nH]1	-3%
CC(C)Oc1cccc(C(=O)NC(=S)Nc2ccccc2N2CCOCC2)c1	-17%
CC(=O)c1ccc(NC(=O)CSc2nc3c(=O)n(C)c(=O)n(C)c3n2C)cc1	8%
Nc1ccc(C(=O)OCC(=O)N2CCOCC2)cc1[N+](=O)[O-]	2%
Cc1ccc(NC(=O)Nc2ccc3c(c2)C(=O)OC3)cc1Cl	-16%
CC(C)c1ccc(S(=O)(=O)N2CCN(C(=O)c3ccncc3)CC2)cc1	-9%
O=C(CCN1C(=O)c2cccc3cccc(c23)C1=O)N1CCN(Cc2ccc3c(c2)OCO3)CC1	-5%
O=C(N/N=C/c1cn[nH]c1-c1ccc(F)cc1)c1ccncc1	-4%
CC(C)Cn1c(N)c(C(=O)COC(=O)c2cccn2C)c(=O)n(C)c1=O	12%
CCc1c(C2(O)CCCCC2)[nH]c2ccc(C(=O)OC)cc12	0%
Cc1ccc(C(=O)NCCNC(=O)COc2ccccc2Cl)cn1	-10%
CCOC(=O)c1ccc(OCC(=O)c2ccc(O)cc2O)cc1	2%
COc1ccccc1N(C)S(=O)(=O)c1ccc(C(=O)OCC(=O)Nc2ccc(C(N)=O)cc2)cc1	14%
CC1CCN(S(=O)(=O)c2ccc3c(c2)N(CC(=O)NCC(C)c2ccccc2)C(=O)CO3)CC1 (centres undefined)	1%
COc1cccc(CC2(CO)CCCN(Cc3c(C)cc(C)cc3-n3cccn3)C2)c1 (centres undefined)	8%
CCc1cccc(CC)c1NC(=S)NCCc1c(C)[nH]c2ccccc12	10%
COC(=O)[C@]1(Cc2ccccc2)N[C@H](CN(C)C(=O)c2ccc(F)cc2)[C@@H]2C(=O)N(C)C(=O)[C@@H]21	1%
COc1cc(C(=O)Nc2ccccc2N2CCCCC2)cc(OC)c1OC	-8%
Cc1cc(-c2csc(NC(=O)c3cccc(S(=O)(=O)N(C)C)c3)n2)c(C)n1-c1ccccc1	2%
(list continues)
SMILES	VDR inh
CC(C)[C@@H](C(=O)NCC1CCC(C(=O)O)CC1)n1nnc2ccccc2c1=O (some centres undefined)	-12%
C#CCOCCOCCOCCNc1nc(N2CCN(C(=O)[C@H](CC(N)=O)n3cc([C@@H](N)C(C)C)nn3)CC2)nc(N2CCN(C(=O)[C@H](CC(N)=O)n3cc([C@@H](N)C(C)C)nn3)CC2)n1	-12%
Cc1c(NC(=O)c2cccnc2Cl)c(=O)n(-c2ccccc2)n1C	-5%
C/C=C/c1ccc(OCCn2cncn2)c(OC)c1	0%
COc1ccc(OC)c(NC(=O)c2nnn(Cc3ccc(Br)cc3F)c2N)c1	-2%
COc1ccc(Oc2nc(Oc3ccc(OC)cc3)nc(Oc3ccc(OC)cc3)n2)cc1	26%
COc1ccc(CCC(=O)NC2CCCCC2)cc1	-3%
Cc1nc2ccccc2c(=O)n1NC(=O)C1CC1	-7%
COc1ccc(-n2nc(C(=O)NCc3ccco3)c3c4ccccc4n(C)c3c2=O)cc1Cl	-3%
CCCn1nnnc1COc1ccc(C(N)=O)cc1	8%
COC(=O)N/N=C/c1ccc(OC(=O)c2ccco2)c(OC)c1	-8%
O=C(Nc1ccc(Cl)cc1)c1cccc(OC(=S)N2CCOCC2)c1	3%
CCCCOc1cccc(C(=O)N(Cc2ccccc2)C2CCS(=O)(=O)C2)c1 (centres undefined)	-12%
C=CCn1c(=N)n(CC(O)c2ccco2)c2ccccc21 (centres undefined)	-6%
O=C(Nc1cc(C(F)(F)F)ccc1F)C1CCCC1	12%
COc1ccc(C(=O)NC2CCN(C(=S)Nc3cccc(C)c3)CC2)cc1	-9%
Fc1ccc(F)c(CNc2ncnc3cc(Cl)ccc23)c1	-6%
CC(C)Cc1nnc(NC(=O)CSc2nc(-c3ccccc3)cc(=O)[nH]2)s1	7%
COc1ccc(/C=C2\CCCC3C2=NN(C(=O)c2scnc2C)C3c2ccc(OC)cc2)cc1 (centres undefined)	-2%
COc1ccccc1CNC(=O)C(C)Oc1ccccc1 (centres undefined)	7%
O=C(Nc1ccc(F)cc1)c1ccc2c(c1)S(=O)(=O)N=C1CCCCCN12	24%
CCCCCCCc1ccc(-c2ccc(O)cc2)nc1	0%
CCOC(=O)c1[nH]c2ccccc2c1NC(=O)CN1CCCCC1	6%
Cc1cc(C)nc(SCC(=O)Nc2ccc3c(c2)OCO3)n1	4%
CCN(CC)CCNC(=O)c1cn(CCOC)c(=O)c2c1c1ccccc1n2C	-8%&12%
(more compounds)
SMILES	VDR inh
Cc1ccc(NC(=O)c2ccc(NS(=O)(=O)c3cccc4cccnc34)cc2)cc1	19%
COc1cccc(C=Nc2ccccc2C(=O)Nc2nccs2)c1OC	11%
Brc1ccccc1C1N=C(c2ccccc2)NO1 (centres undefined)	7%
CCCCOc1ccccc1NC(=O)CC1SC(=NCC)N(CC)C1=O (centres undefined)	6%
Cc1ccc(-n2nc3cc(C)c(NC(=S)NC(=O)/C=C/c4ccco4)cc3n2)cc1	-19%
O=C(Cn1nnc2c(cnn2-c2ccc(F)cc2)c1=O)OC1CCCCC1	14%
COc1ccccc1Nc1cc(C(=O)NCc2cccnc2)c2ccccc2n1	12%
O=C(c1sc2cccc(Cl)c2c1Cl)N1CCN(CCc2ccccn2)CC1	-24%
O=S(=O)(NCC1CCCO1)c1cccc(C(F)(F)F)c1 (centres undefined)	-6%
CO[C@]1(NC(=O)C(C(=O)O)c2ccc(O)cc2)C(=O)N2C(C(=O)O)=C(CSc3nnnn3C)COC21 (some centres undefined)	2%
CC(=O)c1c(C)n(C)c2ccc(OC(=O)c3ccco3)cc12	-3%
COc1cccc(/C=C2/C(=O)NN(c3ccc(F)cc3)C2=O)c1	45µM*
COc1cccc(NC(=O)Nc2cc(C)ccc2F)c1	3%
CCN(CC)c1nc2ccccc2nc1C(C#N)C(=O)NCCc1ccccc1 (centres undefined)	-16%
CCCOC(=O)c1ccc(NC(=O)CC(C)(C)C)cc1	3%
COC(=O)C1=C[C@@H](C(=O)OC)[C@@H]2C3=C(C(=O)[C@@]2(C)NC(=O)c2ccccc2)[C@H](C)C(C(=O)OC)=C(C(=O)OC)[C@@H]3C1	8%
Cc1cccc(NC(=O)CN2C(=O)N/C(=C/c3cc(C)n(C)c3C)C2=O)c1	-10%
CCOCCn1c(CN2CCN(c3ccccc3)CC2)nc2c1c(=O)n(C)c(=O)n2C	-11%
CN1C(=O)C(C)(C)c2cc(S(=O)(=O)N3CCCC3C(=O)Nc3ccc(F)cc3)ccc21 (centres undefined)	15%
N#CCCC12CCCCC1=Nc1ccccc12 (centres undefined)	9%
Cc1cc(C)cc(NC(=O)NN2C(C)CCCC2C)c1 (centres undefined)	-13%
COCCNC(=O)COC(=O)/C=C/c1cnc2ccccc2n1	-9%
Cn1ncc(Br)c1C(=O)Nc1ccc(Cl)cn1	2%
CCOc1ccc(NC(=O)C(CC)NC(=O)c2ccccc2CO)cc1 (centres undefined)	-7%
CCOC(=O)c1ccc(NS(=O)(=O)c2ccc3[nH]c4c(c3c2)CCCCC4)cc1	2%
(list continues)
SMILES	VDR inh
O=C(COc1ccc(Br)cc1)N1CCN(S(=O)(=O)/C=C/c2ccccc2)CC1	-8%
COc1cc(CNC(C)c2ccccc2)cc(Br)c1OCc1ccccc1 (centres undefined)	-20%
O=C(COC(=O)C1CCCC1)Nc1cccc(Cl)c1Cl	17%
CCn1c(SCC(=O)Nc2nc3ccc(C)cc3s2)nc2c(c1=O)SC(C)C2 (centres undefined)	2%
CCOc1cc(N2CCOCC2)c(OCC)cc1NC(=O)CSc1cccc[n+]1[O-]	1%
CN(C)c1ncnc2ccc(-c3cccnc3)cc12	?
CCCCCn1nc(C)c2c(C)cc(=O)[nH]c21	8%
CCOc1ccccc1NC(=O)CCNC(=O)Cn1ccc2ccccc2c1=O	-4%
CCCc1nc2ccccc2c(=O)n1CC(=O)c1ccc(OC)cc1	4%
CC1(C)CC(=O)C=C(NCCN2CCN(C(=S)NC3CCCCC3)CC2)C1	0%
C/C(=N\OC(=O)c1c(-c2ccccc2Cl)noc1C)c1ccncc1	-10%
O=[N+]([O-])c1cccc(-c2nnn(C34CC5CC(CC(C5)C3)C4)n2)c1	-1%
O=C1CN(C(=O)COC(=O)c2ccco2)c2ccccc2N1	-2%
CCNc1nc(C#N)nc(N2CCCCC2)n1	?
CCc1cccc(NC(=O)C2CCCC2)c1	-11%
CN1CCc2c(sc(NC(=O)c3ccc(S(=O)(=O)N4CCOCC4)cc3)c2C(N)=O)C1	-1%
Cc1ccccc1N=C(NO)c1cccnc1	22%
COc1ccc(OC)c(NC2=C(Cl)C(=O)N(Cc3ccccc3)C2=O)c1	-11%
CC(C)Cc1cc(C(=O)N2CCN(c3ccc(F)cc3)CC2)no1	20%
CN(C)c1ccc(C(C(=O)NC2CCCCC2)N(Cc2ccco2)C(=O)c2snc(C(N)=O)c2N)cc1 (centres undefined)	-14%
CCCCOc1ccc(C(=O)NCC(=O)NNC(=O)c2ccco2)cc1	-8%
CC1CN(C(=O)COC(=O)c2ccc(S(=O)(=O)N(C)C)cc2)CC(C)O1 (centres undefined)	1%
CC1CCN(Cc2c(C(=O)N/N=C/c3cccc(C(F)(F)F)c3)nnn2-c2nonc2N)CC1	3%
COc1ccc(/C=N/Nc2nc3ccccc3[nH]2)c(OC)c1OC	2%
O=C(Nc1nncs1)C12CC3CC(CC(Cl)(C3)C1)C2	8%
Other records follow:
SMILES	VDR inh
COCCn1c(SCC(=O)NCCc2ccccc2)nc2c([nH]c3ccccc32)c1=O	-2%
O=C(O)CSc1nnc(CNc2ccccc2Cl)n1-c1ccccc1	-19%
CC(NC(=O)CCC(=O)NCc1ccc(F)cc1)c1ccccc1 (centres undefined)	17%
Cn1cc(C(=O)C(=O)N2CCc3ccccc32)c2ccccc21	2%
O=C(COC(=O)c1ccccn1)NNC(=O)c1ccc([N+](=O)[O-])cc1	4%
Cc1c(C)c2c(OCC(=O)N[C@@H](CC(C)C)C(=O)O)cc3c(c2oc1=O)CCC(C)(C)O3	-9%
Cc1nnsc1SCCNC(=O)c1c(F)cccc1F	0%
Cc1cc(S(=O)(=O)NCc2ccncc2)c(C)cc1Br	-1%
CCN(CC(=O)Nc1ccccc1OC)C(=O)C1CC2C=CC1C2 (centres undefined)	-9%
CC(=O)c1ccc(N2CCN(C(=O)CCC(=O)Nc3ccc4nc(N5CCN(C)CC5)cc(C)c4c3)CC2)cc1	1%
CC(=O)Nc1ccc(NC(=O)CSC2=NS(=O)(=O)c3cc(F)ccc3N2)cc1	6%
O=C(Nc1ccc2c(c1)OCO2)c1ccc(S(=O)(=O)N2CCCC2)cc1	-19%
CCOC(=O)/C=C1\SCC(=O)N1CC(=O)NC(C)c1ccccc1 (centres undefined)	-4%
NC(=O)c1ncn([C@@H]2O[C@H](CNCc3ccc(OCC(=O)Nc4nccs4)cc3)[C@@H](O)[C@H]2O)n1	-10%
CCOc1ccc(-c2cc(C(=O)NCc3ccccc3)c3c(-c4ccc(CC)cc4)[nH]nc3n2)cc1	0%
COc1ccc(C/C(C)=N/NC(=O)c2cc(C)oc2C)cc1	-7%
CCOC(=O)c1ccc(NC(=S)NCCCN2CCN(C3CCCCC3)CC2)cc1	4%
O=C(NCCN1C(=O)S/C(=C\c2ccccc2F)C1=O)C1=COCCO1	13%
O=C(CN1CCN(Cc2ccc3c(c2)OCO3)CC1)N1CCc2[nH]c3ccc(F)cc3c2C1	-4%
CC(C)CN1CCN(Cc2cccn2-c2ccccn2)CC1CCO (centres undefined)	-5%
O=C(COC(=O)c1cccnc1)Nc1ccccc1	-4%
COc1cc(NS(=O)(=O)c2cc(Br)cc3c2N(C(=O)C2CC2)CC3)cc(OC)c1	14%
COc1ccc(-c2nn(-c3ccccc3)cc2CO)cc1OC	-6%

Molecules shown so far that contain an NH in an aromatic ring (14):
SMILES	VDR inh
O=C(NCc1n[nH]c(=S)n1-c1cccc(Cl)c1)c1cccs1	-6%
Cc1[nH]c2ccccc2c1C(=O)COC(=O)C1CCC(=O)N1 (centres undefined)	-16%
NC(=O)CSc1nc2c(sc(=S)n2-c2ccccc2)c(=O)[nH]1	-3%
O=C(N/N=C/c1cn[nH]c1-c1ccc(F)cc1)c1ccncc1	-4%
CCc1c(C2(O)CCCCC2)[nH]c2ccc(C(=O)OC)cc12	0%
CCc1cccc(CC)c1NC(=S)NCCc1c(C)[nH]c2ccccc12	10%
CC(C)Cc1nnc(NC(=O)CSc2nc(-c3ccccc3)cc(=O)[nH]2)s1	7%
CCOC(=O)c1[nH]c2ccccc2c1NC(=O)CN1CCCCC1	6%
CCOC(=O)c1ccc(NS(=O)(=O)c2ccc3[nH]c4c(c3c2)CCCCC4)cc1	2%
CCCCCn1nc(C)c2c(C)cc(=O)[nH]c21	8%
COc1ccc(/C=N/Nc2nc3ccccc3[nH]2)c(OC)c1OC	2%
COCCn1c(SCC(=O)NCCc2ccccc2)nc2c([nH]c3ccccc32)c1=O	-2%
CCOc1ccc(-c2cc(C(=O)NCc3ccccc3)c3c(-c4ccc(CC)cc4)[nH]nc3n2)cc1	0%
O=C(CN1CCN(Cc2ccc3c(c2)OCO3)CC1)N1CCc2[nH]c3ccc(F)cc3c2C1	-4%

An excerpt (hit frequency here may not be typical).
